# Rce1 inh: yeast Rce1p protease inhibitors, primary screen, biochemical, fluorescence, cell-free homogeneous | CAAX prenyl protease 2 (Saccharomyces cerevisiae (strain ATCC 204508 / S288c)), Q03530 | yeast membranes, quenched prenylated peptide cleavage fluorescence | calls only | hit rate 0.27% among 290,000;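 active means fall in fluorescence gain of 50% or more versus controls, with final raw signal at or below 3038400; inconclusive means same 50% fall but final raw signal above 3038400; inactive means fall in fluorescence gain under 50%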;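 further: plate controls were neutral control wells for no effect and wells lacking membranes for full effect; tested at 10 µM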
# MT1-MMP act inh: blockers of MT1-MMP proenzyme processing, primary screen, HT1080 RFP-PRO-GFP cells, GFP/RFP fluorescence; Matrix metalloproteinase-14 (Homo sapiens), P50281; GFP/RFP ratio fluorescence, overnight; percent of plate control window, DMSO zero; GFP/RFP ratio change, % at 20 µM; hit rate 0.061% among 360,000; AID 651647, 2012;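 active means GFP/RFP ratio change of at least 30% with cell ATP level not reduced by more than half and red fluorescence within 50% of control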; further: strong numbers were not always called active
#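 Assay system: HT1080 RFP-PRO-GFP cells | Dosing: 20 µM single dose, 1% DMSO | Incubation: Cells overnight before dosing, compound overnight, 37 °C, 5% CO2 | Evaluation: GFP/RFP fluorescence ratio | Control set: DMSO-only wells and HT1080 RFP-L50D-GFP cell wells as references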
# PABP polyA inh: PABP poly(A) RNA binding inhibitors, primary screen, biochemical, fluorescence polarization, uHTS | Polyadenylate-binding protein 1 (Homo sapiens), P11940 | inhibition, % at 35 µM | hit rate 1% among 290,000 | AID 2014, 2009;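 active means 50% or more with normal probe brightness, or confirmed in later tests; inconclusive means above 50% with abnormal brightness, or retests that disagree; inactive means below 50% or failed in later tests; about a fifth of its hits are not listed in these tables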;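 further: calls also rest on retests at 20 µM and on dose response follow-up; controls were probe without protein and protein plus probe with vehicle; some compounds called inactive have numbers as strong as hits; many hits fall short of the cut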
# Target sequence (P11940 whole entry, looked up): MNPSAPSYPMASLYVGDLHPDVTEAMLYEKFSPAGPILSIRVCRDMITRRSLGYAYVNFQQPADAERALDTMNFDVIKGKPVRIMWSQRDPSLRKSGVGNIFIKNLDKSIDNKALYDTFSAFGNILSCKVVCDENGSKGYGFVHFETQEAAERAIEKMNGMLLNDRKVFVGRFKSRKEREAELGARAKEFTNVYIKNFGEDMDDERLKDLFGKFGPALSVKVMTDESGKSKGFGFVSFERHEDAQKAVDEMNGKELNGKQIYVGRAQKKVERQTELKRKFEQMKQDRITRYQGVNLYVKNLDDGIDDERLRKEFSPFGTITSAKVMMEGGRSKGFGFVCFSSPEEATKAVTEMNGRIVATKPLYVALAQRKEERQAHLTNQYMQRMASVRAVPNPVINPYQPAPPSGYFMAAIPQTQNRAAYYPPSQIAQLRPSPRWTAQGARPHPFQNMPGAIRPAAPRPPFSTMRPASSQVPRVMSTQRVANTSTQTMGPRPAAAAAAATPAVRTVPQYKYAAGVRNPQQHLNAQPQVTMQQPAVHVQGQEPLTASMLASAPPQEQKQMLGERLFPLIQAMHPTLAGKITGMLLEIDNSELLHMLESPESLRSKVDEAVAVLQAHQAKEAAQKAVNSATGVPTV
# CSC inhib: cancer stem cell viability inhibitors, primary screen, luminescence | inhibition, % at 7.5 µM | cancer stem cell-like cells viability | hit rate 1.1% among 300,000 | AID 2717, 2010;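 active means mean at 75% or more and at least half the replicates too; inconclusive means mean and replicates disagree; tested in HMLE shEcad cells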;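 further: 0% = median of negative and 100% = median of positive control wells; the first replicate is given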
# UUG fidelity: modulators of yeast start codon fidelity, primary screen, whole organism, S. cerevisiae, single point, plate reader. S. cerevisiae UUG-firefly luciferase reporter, luminescence/redox ratio. activity score, % at 18.7 µM. hit rate 0.13% among 350,000. AID 602363, 2012;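 active means replicate mean at a twofold rise or more, about +100% in these data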;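 further: firefly luciferase made from a UUG start codon reports start codon fidelity; reporter light over untreated wells divided by growth signal over untreated wells; some hits fall short of that in this replicate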
# eIF4H inh: human eIF4H binding inhibitors, primary screen, translation initiation inhibitor project, biochemical, uHTS, fluorescence polarization. inhibition, % at 35 µM. hit rate 0.94% among 290,000. eIF4H fluorescence polarization binding assay;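 active means 50% or more with normal probe brightness, or confirmed in later tests; inconclusive means above 50% with abnormal brightness, or retests that disagree; inactive means below 50% or failed in later tests; about a fifth of its hits are not listed in these tables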;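 further: calls also rest on retests at 20 µM and on dose response follow-up; 0% = protein and probe with vehicle and 100% = probe without protein; strong numbers were not always called active; many hits fall short of the cut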
# Env fusion inh: inhibitors of HIV-1 Env-driven cell-cell fusion, primary screen, HeLa-JRFL effector, CEM21 target cells, luciferase | inhibition, % at 12.3 µM | hit rate 1.1% among 360,000 | AID 651610, 2012;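 active means mean replicate inhibition score of at least 50 and every replicate individually at or above 50; inconclusive means only one of the two criteria met; inactive means mean below 50 and not all replicates reaching 50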;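 further: 0% = plate neutral controls and 100% = maraviroc near 300 nM; one replicate is shown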
# eIF4H inh retest: further read-out of eIF4H inh, marked with its call; inhibition, %; compound at 20 µM; confirmation average;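 mean of two retest wells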
# PABP polyA inh retest: second read-out of PABP polyA inh, no call of its own (marks repeat the call); inhibition, %; compound at 20 µM; confirmation repeats;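 mean of two retest wells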
# MT1-MMP act inh RFP: recorded beside MT1-MMP act inh, whose call it bears; RFP signal change, %; measured here: RFP expression control read;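 0 = vehicle wells; hits needed this value within 50% of zero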
# * = called active by the depositor; i = inactive; ? = inconclusive; . = no result given; & = joins results of further samples; [ ] = another dose, or the depositor's remark.
SMILES,Rce1 inh,MT1-MMP act inh,MT1-MMP act inh RFP,PABP polyA inh,CSC inhib,UUG fidelity,eIF4H inh,Env fusion inh,others
CC(C)CN(CC(C)C)S(=O)(=O)N1CCC(C(=O)NCc2ccccn2)CC1,.,-2.9,-1.4,1.3,14.0,-14.9,14.4,.,
COc1cccc(NC(=O)CSc2nc(N)cc(N)n2)c1,i,2.0,1.8,-1.7,-4.6,.,-5.5,.,
CC(=O)Nc1ccc(NC(=O)c2cc(-c3cc(C)c(C)cc3O)n[nH]2)cc1,i,5.7,1.2,3.3,12.1,-16.4,4.7,-14.3,
CCOc1ccc(CCNC(=O)Cn2ncn3nc(-c4ccc(OC)cc4)cc3c2=O)cc1,i,3.8,7.6,-9.3,3.6,-13.1,-11.3,-1.7,
Cc1ccc(NC(=S)N(CCN2CCOCC2)Cc2ccccc2F)cc1,i,5.7,4.9,-2.6,-12.9,-9.7,11.7,3.2,
CC1CN(C(=O)CCNC(=O)c2ccc(Br)cc2)CC(C)O1 (stereo not drawn),.,0.9,4.1,.,1.3,.,.,3.3,
O=C1c2ccc3c4c(ccc(c24)C(=O)N1c1cccc(O)c1)C(=O)N(c1cccc(O)c1)C3=O,i,-1.2,-21.6,7.6,12.0,3.3,-5.7,-13.4,
COc1ccc(/C=C2\CCc3ccccc3C2=O)c(OC)c1OC,i,3.0,-2.2,5.3,-4.6,-4.7,-10.3,22.8,
CN(C)C(CNC(=O)c1oc2ccccc2c1CSc1ncn[nH]1)c1ccco1 (stereo not drawn),i,-1.6,5.7,-7.1,-10.2,.,-1.4,-3.9,
CC(CC(=O)Nc1ccc2c(c1)c(=O)n(C)n2-c1ccccc1F)c1ccccc1 (stereo not drawn),.,-3.3,-6.3,.,.,-12.2,.,-10.2,
O=C(Nc1cccnc1Cl)c1ccc(Cl)c([N+](=O)[O-])c1,i,2.3,0.8,8.7,-10.2,.,5.1,-55.8,
CCOC(=O)c1ccc(COC(=O)CCc2nc(-c3ccccc3)c(-c3ccccc3)o2)cc1,i,-6.8,-5.8,-8.2,-12.1,-19.1,-3.4,26.9,

# Random excerpt: 2 records from the list.
SMILES,Rce1 inh,MT1-MMP act inh,MT1-MMP act inh RFP,PABP polyA inh,CSC inhib,UUG fidelity,eIF4H inh,Env fusion inh,others
CC(=O)Nc1ccc(NC(=O)c2cc(-c3cc(C)c(C)cc3O)n[nH]2)cc1,i,5.7,1.2,3.3,12.1,-16.4,4.7,-14.3,
Cc1ccc(NC(=S)N(CCN2CCOCC2)Cc2ccccc2F)cc1,i,5.7,4.9,-2.6,-12.9,-9.7,11.7,3.2,

# (list continues)
SMILES,Rce1 inh,MT1-MMP act inh,MT1-MMP act inh RFP,PABP polyA inh,CSC inhib,UUG fidelity,eIF4H inh,Env fusion inh,others
OC(c1ccc(Cl)cc1Cl)C(Cc1cccnc1)n1cncn1 (stereo not drawn),i,-1.1,-1.7,1.5,.,-13.0,3.1,-13.4,
CC1CCCCN1N=Nc1nc2c([nH]1)c(=O)n(C)c(=O)n2C (stereo not drawn),.,2.4,2.4,.,.,-16.9,.,20.0,
CCCc1nc2oc3c(NCC4CCCO4)ncnc3c2c2c1COC(C)(C)C2 (stereo not drawn),i,7.2,-0.8,7.9,-7.1,3.8,10.9,-31.3,
O=C(COc1ccccc1)Nc1ccc(S(=O)(=O)N2CCCC2)cc1,i,1.1,2.3,-0.1,.,-6.2,-2.2,-3.0,
COC(=O)C12CCC(C)(c3nc4ccccc4nc31)C2(C)C (stereo not drawn),i,-4.9,-5.1,-3.4,-15.4,.,-5.7,13.3,
CC(C)(C)C(=O)Nc1ccc(Oc2ccc3c(c2)C(=O)N(c2ccc(O)cc2)C3=O)cc1,i,2.6,1.5,-8.3,1.7,-16.8,-2.3,-6.0,
CC1CCC(NC(=O)C2c3ccccc3C(=O)N2CCCN2CCOCC2)CC1 (stereo not drawn),i,4.0,4.0,-8.4,-3.1,-5.8,-11.9,-92.5,
CCOCC(=O)Nc1cc(Cl)ccc1C,i,-0.1,1.7,5.6,1.6,.,-0.5,-10.1,
O=C(CN1C(=O)C2CC=CCC2C1=O)Nc1ccc(-c2nnc3n2CCCCC3)cc1 (stereo not drawn),i,3.5,0.7,2.9,-9.7,-8.7,-2.1,26.0,
N=c1n(CCN2CCCCC2)c2ccccc2n1CC(O)c1ccc(Cl)c(Cl)c1 (stereo not drawn),i,-5.7,-3.9,12.1,37.2,-2.4,-7.7,13.6,
Cc1ccc(S(=O)(=O)CCC(=O)OCC(=O)N2CCN(S(=O)(=O)c3ccc(Cl)cc3)CC2)cc1,i,-2.1,1.5,4.7,.,-6.6,-12.7,3.4,
O=S1(=O)CCOC[C@H](CC2CCCCC2)N1Cc1cccc(Cl)c1,i,1.4,-6.5,2.3,19.7,3.8,0.2,38.1,
O=C(CSc1ncccn1)NCc1ccccc1,i,-3.2,1.5,1.5,18.2,-14.2,-3.9,18.0,
COc1cc(C(=O)Nc2cc(C)ccn2)cc(OC)c1OC,i,2.7,0.5,3.4,-15.5,-7.8,4.9,11.0,
COc1ccc(/C=C2/SC(=O)N(CC(=O)NCCC(C)C)C2=O)cc1OC,i,4.8,-1.7,1.6,-8.4,.,-2.4,23.8,
COCCCn1c(C)cc(C(=O)COC(=O)CCc2nc3ccccc3c(=O)[nH]2)c1C,i,.,.,7.6,2.3,.,5.3,8.4,
O=C(/C=C/c1cn(CC(O)CN2CCOCC2)c2ccccc12)c1cccs1 (stereo not drawn),i,.,.,44.3*,-9.2,.,97.7,.,eIF4H inh retest=46.8;PABP polyA inh retest=59.2*
O=C(c1ccco1)N1CCN(S(=O)(=O)c2ccc(Cl)s2)CC1,.,0.6,3.1,-3.3,-4.7,-10.0,3.4,.,
Cc1nn(-c2ccccc2)c2c1C(c1cccnc1)N1C=C(S(=O)(=O)N3CCCCC3)C=CC1=N2 (stereo not drawn),i,-0.4,2.2,-2.1,-5.3,6.9,-7.1,.,
CC1(C)CC(=O)C2=C(C1)Oc1ncn(CCCn3ccnc3)c(=N)c1C2c1ccccc1 (stereo not drawn),i,2.7,2.1,-3.4,-3.2,11.1,0.9,-34.1,
C[C@H](CO)N1C[C@H](C)[C@@H](CN(C)S(=O)(=O)c2ccc(Oc3ccccc3)cc2)OCc2cn(nn2)CCCC1=O,.,-1.8,1.9,.,.,15.8&1.0&7.7,.,4.7[16.7 µM],
Cc1ccc(NC(=O)C(c2ccccc2)N2CCN(C(=O)c3ccco3)CC2)cc1 (stereo not drawn),.,-1.5,1.0,.,.,-4.9,.,-0.7,
O=C(NC(C(=O)c1ccccc1)n1ccc(=O)[nH]c1=O)c1ccccc1 (stereo not drawn),i,3.2,3.3,5.3,-16.9,-1.5,-7.3,-135.1,
COc1ccc(C2C(C(=O)c3cccs3)=C(O)C(=O)N2c2cccc(C)n2)cc1OC (stereo not drawn),i,1.6,0.0,6.3,-6.7,.,4.3,-39.6,
Cc1cc(C)c(NN=c2c(=O)c3ccccc3c2=O)c(C)c1,i,4.5,-3.1,-1.0,6.2,5.5,-5.9,-42.1,
CCOC(=O)c1sc(NC(=O)CN2C(=O)NC3(CCC(C)CC3)C2=O)c(C(=O)OCC)c1C (stereo not drawn),.,-0.4,1.7,.,-7.3,-17.5,.,-8.1,
NC(=O)c1oc2ccc(Cl)cc2c1N,i,-4.2,-1.3,-2.6,-1.2,-9.2,-7.4,.,
COCOc1ccc(-c2ncc(OC)nc2NC(=O)c2cc(C)oc2C)cc1,.,1.4,-2.2,.,.,-9.2,.,-16.3,
COc1ccccc1C(=O)N1N=C(c2ccc(NS(C)(=O)=O)cc2)CC1c1cccs1 (stereo not drawn),i,-4.2,-1.0,0.5,-0.8,-4.2,-3.6,-4.3,
Cc1n[nH]c(C)c1C(=O)CC1(O)C(=O)N(Cc2ccccc2)c2ccc(Br)cc21 (stereo not drawn),i,5.1,3.4,-10.1,-7.1,-15.1,9.8,-48.6,
Cc1ccc(-n2nc(C)c3c2OC(N)=C(C#N)C3c2ccc(F)cc2)cc1 (stereo not drawn),i,8.0,0.4,1.7,12.1,-15.3,-5.0,3.9,
COc1ccc(-n2c(C)c(C)c3c(N)ncnc32)cc1,i,-12.4,-7.2,-7.0,-0.9,-6.0,7.5,22.9,
COC(=O)Nc1ccc(S(=O)(=O)NCCCCCC(=O)O)cc1,i,-2.7,6.1,-10.2,-4.3,-15.7,4.9,0.0,
CC1OC2C(OC1C)N(S(C)(=O)=O)CCN2S(C)(=O)=O (stereo not drawn),i,-1.5,1.1,1.9,1.7,-18.0,0.8,.,
Cc1ccc(S(=O)(=O)N(CC(=O)Nc2ccccc2-c2ccccc2)c2ccc(C)cc2C)cc1,i,-11.4,-8.6,-5.5,-12.8,-10.8,-6.8,19.1,
CC1=C(C(=O)OCC2CCCO2)C(c2ccccc2)C2=C(CCCC2=O)N1 (stereo not drawn),i,-1.2,-1.6,2.2,18.1,.,-12.0,-2.4,
CC(=O)Nc1ccccc1OCC(=O)c1cc(C)n(Cc2cccs2)c1C,i,-1.0,-18.6,-12.3,36.8,-4.9,-14.0,?,
O=C(Nc1nc(-c2ccco2)cs1)c1ccccc1,i,-11.8,5.3,20.1,-12.6,-15.3,36.1,.,
Clc1ccc(-n2nnnc2-c2cnc3ccc(Cl)cc3c2-c2ccccc2)cc1,i,-9.0,-8.5,7.3,65.1,.,3.2,24.1,
CCC(=O)N(C)C[C@H]1Oc2ncc(C#Cc3ccncc3)cc2C(=O)N([C@@H](C)CO)C[C@@H]1C,.,-1.9,4.4,.,.,-13.8&-16.4,.,9.1,
Cc1ccc(-n2c(-c3cccs3)nc3nc4ccccc4nc32)cc1,i,.,.,-13.6,35.1,.,-0.3,-6.7,
CCc1nnc2n1N=C(c1ccccc1)CS2,i,0.1,1.8,9.6,-7.2,-18.2,7.2,-8.2,
CCOC(=O)C(Cc1ccccc1)C(=O)Nc1cccc(C)c1 (stereo not drawn),i,-2.8,-2.4,-4.9,-1.0,.,-5.6,5.4,
COC(=O)[C@H](C)NC(=O)NC(C)CCc1ccccc1 (stereo partly drawn),i,-0.2,2.8,10.5,-10.0,-11.4,-1.6,.,
Cc1ccccc1OCC(O)Cn1c(=N)n(Cc2ccccc2)c2ccccc21 (stereo not drawn),i,-13.5,-15.4,-10.0,?,1.7,-12.7,-7.4,
COc1ccc(C(=O)CC2OC(=O)c3ccccc32)cc1OC (stereo not drawn),i,-2.2,-0.6,-2.8,-10.5,-3.8,-6.0,-26.1,
Cc1cc(N)n2nc(-c3ccccc3)cc2n1,i,9.9,2.9,-2.8,30.2,-26.9,6.1,.,
O=C(N/N=C/c1cc(Br)c(Br)o1)c1ccc2c(c1)OCCO2,i,-0.5,-3.3,53.7*,10.1,-21.1,75.6*,-67.4,
COc1ccc(Cn2c(C3CC3)nc3ccc(NC(=O)c4cccnc4)cc3c2=O)cc1,i,-4.3,-8.8,4.5,.,-7.2,-0.5,.,

# High-throughput results (PubChem)

# The list is partial. The share of hits here may be higher or lower than overall.
